Mtb MenB inh = Mtb MenB enzyme inhibition | P9WNP5 | MenB enzyme assay, absorbance read-out; some hits fall short of the stated cut | inhibition, %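 (about 12 µg/mL by stock and volumes)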 | 100,000 compounds, 0.43% hits;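 active means mean of two replicates above 30%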;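 further: 0% = no compound and 100% = wells with inactive enzyme; the first replicate is given; strong numbers were not always called active; inactives centre near -10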
Target sequence (P9WNP5 whole entry, looked up): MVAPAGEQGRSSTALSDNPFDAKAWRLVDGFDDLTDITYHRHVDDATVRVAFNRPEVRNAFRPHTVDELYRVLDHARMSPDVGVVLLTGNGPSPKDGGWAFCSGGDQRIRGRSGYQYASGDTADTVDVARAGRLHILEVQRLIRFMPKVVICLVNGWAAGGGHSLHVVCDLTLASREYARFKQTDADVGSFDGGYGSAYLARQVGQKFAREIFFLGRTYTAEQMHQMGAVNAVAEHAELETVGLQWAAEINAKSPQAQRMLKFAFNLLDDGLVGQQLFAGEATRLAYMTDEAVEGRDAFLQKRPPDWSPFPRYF
MbtI inh = inhibitors of Mycobacterium tuberculosis siderophore enzyme MbtI; inhibition, %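 (about 17 µg/mL by stock and volumes)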; 100,000 compounds, 0.89% hits; purified MbtI enzyme, fluorescence intensity read-out; P9WFX0;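 active means above 50% in both replicates, above 80% if mildly self-fluorescent; inactive means the rest, strongly fluorescent compounds included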;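 further: 0% = mean of negative and 100% = mean of positive controls; one replicate is shown; some compounds called inactive have numbers as strong as hits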
Target sequence (P9WFX0 whole entry, looked up): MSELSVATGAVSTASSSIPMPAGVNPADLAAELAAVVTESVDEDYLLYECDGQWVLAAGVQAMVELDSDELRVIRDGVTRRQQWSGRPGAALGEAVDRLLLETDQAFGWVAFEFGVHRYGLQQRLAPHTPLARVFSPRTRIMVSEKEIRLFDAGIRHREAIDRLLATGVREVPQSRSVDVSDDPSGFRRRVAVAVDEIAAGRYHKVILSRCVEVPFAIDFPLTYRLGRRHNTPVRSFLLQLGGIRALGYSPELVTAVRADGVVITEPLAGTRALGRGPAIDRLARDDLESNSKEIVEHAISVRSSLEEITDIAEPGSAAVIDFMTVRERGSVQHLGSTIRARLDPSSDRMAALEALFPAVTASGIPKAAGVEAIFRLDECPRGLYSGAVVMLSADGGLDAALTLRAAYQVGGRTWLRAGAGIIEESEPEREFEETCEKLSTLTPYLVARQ
Polio RdRp inh = inhibitors of poliovirus RNA polymerase binding and polymerization | P03300 | poliovirus polymerase elongation, fluorescence polarization; stronger effect = lower value | % elongation, % (compound at 16.7 µg/mL) | 150,000 compounds, 0.66% hits | AID 588519; in the data active means % elongation below about 90%; further: some results filed as inactive read as strong as hits
Polio RdRp inh intensity = recorded beside Polio RdRp inh, whose call it bears; % elongation; measured here: total intensity read-out; formula for this scale not given here;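 total fluorescence in place of polarization; lower means less elongation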
Numbers without * were called inactive; . = not tested or not shown; & = joins results of further samples.

SMILES	Mtb MenB inh	MbtI inh	Polio RdRp inh	Polio RdRp inh intensity
COc1ccc(/C=C/C(=O)Nc2ccc3c(c2)OCO3)cc1S(=O)(=O)N1CCCCC1	-7.7	-9.9	101.0	107.0
Cc1nn(CC(=O)N2CCCCC2)c(C)c1S(=O)(=O)NC(C)(C)C	-23.2	-11.8	109.0	106.0
O=C(c1ccco1)N1CCC(N(CCc2ccccc2)Cc2ccccc2)CC1	-18.4	-5.5	101.0	104.0
CC(C(=O)O)N1CCCCC1 (stereo not drawn)	3.3	-4.2	101.0	101.0
COC(=O)C1=CN2C(C=C1)C(C(=O)OC)(C(=O)OC)[C@@H](c1cccnc1)[C@@H]2C#N (stereo partly drawn)	-55.2	.	44.0	244.0
Cc1noc(C)c1COC(=O)CN(C)S(=O)(=O)c1ccc(Cl)cc1	-2.2	-5.2	102.0	105.0
O=C(N/N=C/c1ccccc1O)c1c[nH]c2ccccc12	-102.4	1.1	105.0	109.0
CCN1Cc2cccc(CNc3cc(C)cc(C)c3)c2C1	-11.7	-4.8	100.0	105.0
CCN(C(=O)c1ccco1)C1C2CC3CC(C2)CC1C3 (stereo not drawn)	-4.1	-12.1	103.0	106.0
CC1CCc2c(sc3nc(-c4ccc(Cl)cc4)cn23)C1 (stereo not drawn)	10.5	-0.6	101.0	103.0
CC(=O)Oc1cccc2ccc(C#N)nc12	9.5	100.5	98.0	100.0
Cc1ccc(S(=O)(=O)c2ccc(N/N=C/c3c(O)n(C)c(=O)n(C)c3=O)cc2)cc1	-0.1	-12.4	.	.
CC1CCC2[C@](C)(CO)[C@@H](O)CC[C@]2(C)[C@@]12CCC1(CCOC1)O2 (stereo partly drawn)	-0.6	11.3	100.0	103.0
O=S(=O)(CCN1CCOCC1)c1ccc(F)cc1	15.1	-5.5	99.0	101.0
O=C(O)C1CCCCN1Cc1ccco1 (stereo not drawn)	27.7	4.0	99.0	100.0
N#CC(C(=O)N1CCCCC1)C(CC(=O)c1ccccc1)c1cccc(Br)c1 (stereo not drawn)	-1.6	.	105.0	111.0
CN(CCC#N)C(=O)c1ccc2c(c1)N(Cc1cccc(Cl)c1)C(=O)c1ccccc1S2=O (stereo not drawn)	-11.6	7.8	100.0	98.0
NC(=O)CC(=O)c1c(O)c2ccccc2n(-c2ccccc2)c1=O	-9.2	.	114.0	118.0
CC(C)(C)NC(=O)Cn1nnc(-c2cccs2)n1	-31.9	-10.1	101.0	104.0
N#CCCn1cc(C(=O)Nc2ccccc2)c(-c2ccc3c(c2)OCCO3)n1	-40.0	-7.1	104.0	100.0
COc1cc(CO)ccc1OCc1ccc(Cl)cc1	-0.6	-13.3	99.0	99.0
O=C(OCCN(C1=NS(=O)(=O)c2ccccc21)c1ccc(Cl)cc1)c1cccs1	-25.6	-11.6	103.0	101.0
Cc1nc(-c2cccs2)sc1NC(=O)Nc1ccc(Cl)cc1	13.0	110.0	102.0	96.0
COc1cc(/C=C/C(=O)Nc2nnc(C)s2)cc(OC)c1OC	-2.6	125.2	101.0	99.0
Cn1c2c(c(=O)[nH]c1=O)C(NC(=O)c1ccccc1)(C(F)(F)F)C(=O)N2 (stereo not drawn)	5.2	6.2	100.0	101.0
COC(=O)c1cc2oc3ccccc3c2n1CC(=O)Nc1ccccc1OC	2.6	-4.0	99.0	103.0
Cc1nnc(Sc2cnn(-c3ccccc3)c(=O)c2Cl)n1C	2.1	27.4	100.0	104.0
Cc1oc(C(C)(C)C)cc1C(=O)N1CCCC1C(=O)O (stereo not drawn)	-3.4	.	98.0	95.0
CNC(=O)NC(=O)C(Sc1cccc[n+]1[O-])c1ccccc1 (stereo not drawn)	-6.4	-2.8	104.0	106.0
c1cncc(CNCCN2CCOCC2)c1	65.4*	-8.0	102.0	103.0
Cc1cc(NC(=O)c2cnn3c(C(F)(F)F)cc(-c4ccccc4)nc23)no1	-16.2	-5.9	99.0	103.0
Nc1ncn(C2O[C@H](CO)[C@H](O)[C@@H]2O)c(=O)n1 (stereo partly drawn)	-2.3	-7.6	103.0	100.0
N#C/C(=N/Nc1ccc2c(c1)OCO2)C(=O)N1CCCC1	-20.1	-6.7	101.0	102.0
N=c1c2c3c(sc2ncn1CCCO)CCCCC3	-14.8	2.1	102.0	102.0
COc1ccc(CC(=O)NC(=S)Nc2cccnc2Cl)cc1	-23.9	4.5	101.0	105.0
N#Cc1cccc(NC(=O)COc2ccccc2C(N)=O)c1	-17.1	-8.3	106.0	110.0
O=C(Nc1nc(=O)c2ccccc2s1)c1ccccc1	-22.1	35.6	102.0	104.0
Cn1c(=O)[nH]c(=O)c2c1ncn2CC(O)CO (stereo not drawn)	-13.0	-4.8	100.0	104.0
COc1ccccc1-c1c(C)nn2c(SCC(=O)NCc3ccc4c(c3)OCO4)cc(C)nc12	-25.4	-4.7	104.0	102.0
CC(=O)N1CN(C2CCS(=O)(=O)C2)Cc2c1sc1c2CCCC1 (stereo not drawn)	-17.7	9.8	102.0	105.0
Cc1ccc(C(=O)O)cc1NCc1ccccn1	-0.2	15.2	101.0	100.0
N#Cc1ccc(CSc2cnc3ccccc3n2)cc1	-17.4	-2.6	.	.
CCOC(=O)c1cc(Sc2n[nH]c(-c3ccccc3)n2)cc(C(=O)OCC)n1	-5.0	-0.5	102.0	102.0
Nn1c(SCC(=O)Nc2cccc(Br)c2)nnc1C(F)(F)F	-15.8	-2.9	97.0	101.0
O=C(Nc1ccc(N2CCN(C(=O)c3ccco3)CC2)cc1)c1ccccc1	17.1	2.1	103.0	101.0
O=C(c1ccc(-n2cccn2)cc1)N1CCCC1c1ccc2c(c1)OCCCO2 (stereo not drawn)	-15.2	-3.6	102.0	90.0
CN(CC(=O)N1CCN(Cc2ccccc2)CC1)S(=O)(=O)c1cnc[nH]1	12.1	-2.7	101.0	102.0
CCOC(=O)N1CCN(CC(O)COCc2ccc(Cl)cc2)CC1 (stereo not drawn)	6.7	4.2	104.0	98.0
CC(NC(=O)Nc1ccccc1Br)(C(F)(F)F)C(F)(F)F	5.0	.	102.0	108.0
CC1(C)C2CCC(C2)C1(C)NC(=S)NCC1CCCO1 (stereo not drawn)	-8.3	-6.5	97.0	96.0
Cc1ccc(C(=O)NCCC2=CCCCC2)cc1	4.9	.	103.0	104.0
COC(=O)c1ccccc1NC(=O)CCc1ccc(OC)cc1	-1.6	.	102.0	112.0
Cc1ccc(-n2c(=O)c3sccc3n(CC(=O)c3ccc(Br)cc3)c2=O)cc1F	-26.1	-9.6	103.0	104.0
S=C(NCCN1CCCCC1)Nc1ccccc1	-16.5	-9.2	101.0	104.0
O=C(Nc1ccc(C23CC4CC(CC(C4)C2)C3)cc1)c1cccs1	-33.4	12.9	103.0	99.0
CC(=O)O[C@]1(C(C)=O)CCC2C3C=C(C)C4=CC(=O)CCC4(C)C3CCC21C (stereo partly drawn)	-10.5	0.6	100.0	99.0
NC(=O)C[n+]1ccc(C(N)=O)cc1	13.9	-0.8	100.0	104.0
O=C(CNc1cccc(C(F)(F)F)c1)NN=C1CCCCC1	6.4	-9.6	107.0	112.0
O=C(O)c1ccc2c(c1)C(=O)N(CCC1=CCCCC1)C2=O	0.7	2.4	102.0	98.0
CCOC(=O)c1c(C)nsc1Nc1cc(C)ccc1C	-30.5	7.3	104.0	105.0
The results go on:
SMILES	Mtb MenB inh	MbtI inh	Polio RdRp inh	Polio RdRp inh intensity
CCN(CC)CCNC(=O)c1ccc(N)cc1	-0.4&4.0&-57.2	-6.3&-6.4&-7.9	102.0&101.0&101.0&101.0	101.0&101.0&103.0&99.0
O=C(c1cc2ccccc2o1)N1CCCC1c1nc2ccccc2s1 (stereo not drawn)	-16.1	-23.9	96.0	90.0
CCOC(=O)c1cccc(OCC(O)CN(C)Cc2ccc(C)o2)c1 (stereo not drawn)	-15.1	-4.2	97.0	106.0
O=C(NN=C1CCCCC1)c1n[nH]c2c1CCC2	3.2	-1.6	103.0	100.0
Cc1cc(NC(=O)COC(=O)/C=C/c2ccccc2Cl)no1	-4.5	-8.1	103.0	101.0
Cc1c(C)c2c(c(C)c1O)CCC(C)(CCCC(C)CCCC(C)CCCC(C)C)O2 (stereo not drawn)	-9.9	6.1	97.0	95.0
CCc1ccccc1NS(=O)(=O)c1ccc2c(c1)CC(C)N2C(=O)C1CC1 (stereo not drawn)	-14.1	-9.1	101.0	95.0
COc1ccc(-n2cnc3cc(C(=O)NCC4CCCO4)ccc32)cc1 (stereo not drawn)	-29.2	-2.6	102.0	95.0
O=C(O)C1C2CCC(C2)C1C(=O)c1ccccc1 (stereo not drawn)	13.1	.	109.0	111.0
COCCn1c(SCC(N)=O)nc2sc3c(c2c1=O)CCCC3	-23.6	-6.6	99.0	105.0
COc1cc(-c2nnc(SCC(=O)c3ccco3)n2C)cc(OC)c1OC	6.0	-1.5	105.0	101.0
CCn1c2ccccc2c2cc(CNCCO)ccc21	-29.8	89.2	101.0	101.0
O=C(NC1CCCC1)C(c1ccncc1)N(Cc1cccs1)C(=O)c1csnn1 (stereo not drawn)	-10.6	.	108.0	113.0
O=C(OCN1C(=O)c2ccccc2C1=O)c1cccc(OC(F)F)c1	-4.4	-5.7	104.0	105.0
CC1C(=O)CCNC1c1ccccc1 (stereo not drawn)	-25.2	-17.1	104.0	104.0
CC(C)Cn1cnc2c1c(=O)n(CC(=O)NCC(F)(F)F)c(=O)n2Cc1ccccc1	6.7	-10.5	104.0	106.0
O=C(Nc1ccccc1)Nc1ccc2nnsc2c1	9.1	3.4	103.0	105.0
CCCNC(=O)C1CCC(CNS(=O)(=O)c2cccc3nsnc23)CC1 (stereo not drawn)	4.6	6.9	104.0	98.0
CCOc1cc(C)c(Cl)cc1S(=O)(=O)N1CCN(C)CC1	15.3	-16.6	101.0	102.0
O=C1CCC(C(=O)OCc2ccc(Br)cc2)=NN1	-9.0	-8.9	102.0	108.0
Cc1cccc(-c2nnc(SCC3CNC(=O)O3)n2-c2ccc(Cl)cc2)c1 (stereo not drawn)	-8.1	37.6	.	.
Cn1c(SCc2nc(-c3cccs3)no2)nnc1-c1ccncc1	-4.8	-11.6	104.0	106.0
COC(=O)c1sc(N)c(C(=O)OC)c1COC(=O)C1CC(=O)N(Cc2ccco2)C1 (stereo not drawn)	-17.3	9.7	110.0	110.0
N#CCc1ccccc1C(=O)O	-26.4	-11.9	97.0	106.0
O=C1OC(C(=O)NCCc2ccccc2)Cc2ccccc21 (stereo not drawn)	0.2	2.7	101.0	101.0
O=C(OCC(=O)N1CCCC1)c1cc(-c2ccco2)nc2ccccc12	-5.6	20.7	95.0	94.0
CSc1cccc(NC(=O)CN(C)S(=O)(=O)c2ccc3c(c2)CC(C)N3C(C)=O)c1 (stereo not drawn)	-20.1	-13.3	103.0	106.0
Cn1c(=O)cc(OCC(=O)NCCC2=CCCCC2)c2ccccc21	-13.5	-5.7	102.0	104.0

Three structures out of the list, arranged by molar mass, low to high:
SMILES	Mtb MenB inh	MbtI inh	Polio RdRp inh	Polio RdRp inh intensity
O=C(Nc1ccccc1)Nc1ccc2nnsc2c1	9.1	3.4	103.0	105.0
Cn1c(SCc2nc(-c3cccs3)no2)nnc1-c1ccncc1	-4.8	-11.6	104.0	106.0
CCCNC(=O)C1CCC(CNS(=O)(=O)c2cccc3nsnc23)CC1 (stereo not drawn)	4.6	6.9	104.0	98.0

Structures above with a Cl atom:
SMILES	Mtb MenB inh	MbtI inh	Polio RdRp inh	Polio RdRp inh intensity
Cc1noc(C)c1COC(=O)CN(C)S(=O)(=O)c1ccc(Cl)cc1	-2.2	-5.2	102.0	105.0
CC1CCc2c(sc3nc(-c4ccc(Cl)cc4)cn23)C1 (stereo not drawn)	10.5	-0.6	101.0	103.0
CN(CCC#N)C(=O)c1ccc2c(c1)N(Cc1cccc(Cl)c1)C(=O)c1ccccc1S2=O (stereo not drawn)	-11.6	7.8	100.0	98.0
COc1cc(CO)ccc1OCc1ccc(Cl)cc1	-0.6	-13.3	99.0	99.0
O=C(OCCN(C1=NS(=O)(=O)c2ccccc21)c1ccc(Cl)cc1)c1cccs1	-25.6	-11.6	103.0	101.0
Cc1nc(-c2cccs2)sc1NC(=O)Nc1ccc(Cl)cc1	13.0	110.0	102.0	96.0
Cc1nnc(Sc2cnn(-c3ccccc3)c(=O)c2Cl)n1C	2.1	27.4	100.0	104.0
COc1ccc(CC(=O)NC(=S)Nc2cccnc2Cl)cc1	-23.9	4.5	101.0	105.0
CCOC(=O)N1CCN(CC(O)COCc2ccc(Cl)cc2)CC1 (stereo not drawn)	6.7	4.2	104.0	98.0
Cc1cc(NC(=O)COC(=O)/C=C/c2ccccc2Cl)no1	-4.5	-8.1	103.0	101.0
CCOc1cc(C)c(Cl)cc1S(=O)(=O)N1CCN(C)CC1	15.3	-16.6	101.0	102.0
Cc1cccc(-c2nnc(SCC3CNC(=O)O3)n2-c2ccc(Cl)cc2)c1 (stereo not drawn)	-8.1	37.6	.	.
